Screening data as filed in PubChem BioAssay.
KCNQ2 enhance = enhances the rat KCNQ2 potassium channel; O88943; CHO-K1 KCNQ2, FluxOR thallium flux fluorescence; stronger effect = higher value; B-score at 10 µM; actives 0.54% (n = 310,000);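 active = fluorescence ratio B-score at least 3 SD of library B-scores, with initial fluorescence B-score within 3 SD, cut at about 5.3 in these data; same plate scores as AID 2156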;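 also: B-score of peak minus minimum over baseline fluorescence ratio after K+ and Tl+ stimulus; positive B-score means potentiation of KCNQ2 with more thallium influx and brighter signal; only the inactives scoring about 0 or higher are listed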
Target sequence (O88943 whole entry, looked up): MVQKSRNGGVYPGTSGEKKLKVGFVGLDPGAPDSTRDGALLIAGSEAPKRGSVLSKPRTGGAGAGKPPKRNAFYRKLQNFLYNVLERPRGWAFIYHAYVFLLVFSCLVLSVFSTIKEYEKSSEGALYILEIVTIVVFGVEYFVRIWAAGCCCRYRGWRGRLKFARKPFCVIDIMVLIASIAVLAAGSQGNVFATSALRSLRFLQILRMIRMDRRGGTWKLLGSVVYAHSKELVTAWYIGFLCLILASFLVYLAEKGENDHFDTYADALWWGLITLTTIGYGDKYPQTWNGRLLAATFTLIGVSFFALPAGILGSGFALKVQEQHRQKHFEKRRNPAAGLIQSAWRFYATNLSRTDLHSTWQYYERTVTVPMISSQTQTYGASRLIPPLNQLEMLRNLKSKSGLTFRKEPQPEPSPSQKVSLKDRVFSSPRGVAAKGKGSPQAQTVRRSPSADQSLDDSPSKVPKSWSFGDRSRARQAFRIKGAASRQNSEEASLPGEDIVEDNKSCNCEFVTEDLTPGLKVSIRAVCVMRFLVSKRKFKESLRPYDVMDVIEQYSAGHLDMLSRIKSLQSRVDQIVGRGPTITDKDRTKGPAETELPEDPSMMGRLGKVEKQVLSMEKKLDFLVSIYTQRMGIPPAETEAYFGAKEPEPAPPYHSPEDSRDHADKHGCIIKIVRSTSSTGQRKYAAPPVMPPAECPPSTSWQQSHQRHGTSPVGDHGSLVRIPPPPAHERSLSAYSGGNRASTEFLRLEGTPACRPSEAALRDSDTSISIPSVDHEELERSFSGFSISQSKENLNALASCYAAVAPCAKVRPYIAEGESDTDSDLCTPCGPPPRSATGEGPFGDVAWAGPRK
KCNQ2 enhance baseline = further read-out of KCNQ2 enhance, marked with its call; B-score; compound at 10 µM; measured here: initial fluorescence intensity artifact check;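 brightness before thallium and not channel activity; 0 = typical well and far values either way flag optical interference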
An asterisk follows results filed as active. Only part of the results is shown; count on the stated rates, not on these rows.

SMILES	KCNQ2 enhance	KCNQ2 enhance baseline
COc1ccc(NC(=O)CSc2nc(-c3ccco3)nc3cc(=O)[nH]n23)cc1Cl	0.86	-0.18
CCOc1cc(C(=S)N2CCCC2)ccc1OC	2.4	-1.2
CC(=O)C(=Cc1cc(C)n(-c2ccccc2)c1C)C(C)=O	0.23	-1.8
O=C(CN1C(=O)C2CC=C(Cl)CC2C1=O)Nc1ccc(C(=O)O)cc1 (stereo not given)	2.5	-0.85
O=C(NC1CC1)c1ccc(CS(=O)c2ccc(Br)cc2)o1 (stereo not given)	1.2	0.08
CC(=O)c1c(C)[nH]c(C(=O)Nc2ccc(Cl)c(S(=O)(=O)N(C)C)c2)c1C	3.5	-2.6
CC(OC(=O)CCC(=O)c1cccs1)C(=O)Nc1ccccc1[N+](=O)[O-] (stereo not given)	0.78	-0.12
Cc1ccc(NC(=O)C(C)Sc2nc(=O)cc(N)n2-c2ccccc2)cc1 (stereo not given)	2.5	0.11
N/C(=N\OC(=O)c1ccc(Cl)cc1Cl)c1ccccc1	0.07	-0.31
O=c1c2c([nH]c3ccccc13)C(=C1CCCC1)CC2	0.74	-1.3
OCCN1CCOCCOc2ccccc2OCCOCC1	0.81	-0.54
CCOc1ccc(C(=O)OCC(=O)N2CCCC2)cc1	0.05	-1.3
CCCNC(=O)C1(CC2CC(c3ccccc3)=NO2)CCN(C(=O)Cc2ccc(F)cc2)CC1 (stereo not given)	0.82	1.8
O=C(O)c1ccc2c(=O)n3c(nc2c1)/C(=C/c1ccc(Cl)cc1Cl)CC3	0.57	-0.67
Cc1ccc(C(=O)Nc2cccnc2)cc1Cl	3	-0.2
NS(=O)(=O)c1ccc(NC(=O)CSc2n[nH]c(=O)n2Cc2ccccc2)cc1	0.14	-2.5
Cc1cc(NC(=O)c2c(Br)c(C)nn2C)no1	1.7	0.08
CC(OC(=O)C1CC(=O)N(Cc2ccccc2)C1)C(=O)Nc1cccc(C#N)c1 (stereo not given)	1.1	-0.17
CNc1nc(C)c(C(=O)OCc2ccccc2)s1	0.68	-0.6
O=C(Cc1ncc(C(F)(F)F)cc1Cl)Nc1cccc(Br)c1	3.1	0.35
CCc1ccc(NC(=O)C(=O)NCC(O)c2ccccc2)cc1 (stereo not given)	0.32	0.64
O=C(O)CCCCCCCCCCP(=O)(c1ccccc1)c1ccccc1	0.06	-0.52
Cc1cc(Cl)c(S(=O)(=O)N(C)C)cc1OCC(N)=O	0.69	-0.1
O=C(O)c1cccc(NC(=O)c2cn(-c3ccccc3)nc2-c2cccc(Br)c2)c1	0.14	0.58
COC(=O)NNC(=O)COc1ccccc1C	0.54	-1.1
O=C(CC12CC3CC(CC(C3)C1)C2)N1CCCOC1	0.49	0.01
O=c1[nH]c(Cc2ccccc2)nc2c1oc1ccccc12	0.14	0.43
COc1cc(CCCN2CCNC[C@@H]2C(C)O)cc(OC)c1OC (stereo not given in full)	0.33	-1.9
C=CCNc1nc(Nc2ccc([N+](=O)[O-])cc2)nc(N2CCCC2)n1	3.5	0.59
Cc1cc(Oc2nc3c(C)cccn3c(=O)c2/C=C(\C#N)S(=O)(=O)c2ccc(Cl)cc2)ccc1Cl	1.2	-0.61
O=C(O)CCN1C(=O)c2ccc(NC(=O)c3cccs3)cc2C1=O	0.25	-1.9
CC(Sc1nc(-c2ccco2)nc2c1c(=O)n(C)c(=O)n2C)C(=O)O (stereo not given)	0.16	1.1
Cc1ncc(CN2CCCC(CCC(=O)NCc3ccc(F)c(F)c3)C2)s1 (stereo not given)	1.1	-2.8
COC(=O)c1cccc(NC(=O)c2cccnc2)c1	0.29	1.1
CC(=O)Nc1nc(-c2ccc3c(c2)CCN3C(=O)C2CC2)c(C)s1	0.57	1.3
COc1ccc(NC2=C3CC(C)CC=C3N(c3ccc(OC)cc3)C2=O)cc1 (stereo not given)	0.25	0.07
Cc1ccc(S(=O)(=O)N2CCC3(CC2)OCCN3S(=O)(=O)c2cccs2)cc1	0.08	1.1
Cc1noc(C)c1C(=O)NC(C)C12CC3CC(CC(C3)C1)C2 (stereo not given)	0.08	-1.8
Cc1ccc(S(=O)(=O)N(C)c2c(C)ccc(S(N)(=O)=O)c2C)cc1	0.24	-0.61
C/C(=C\c1ccco1)C1C(C#N)=C(N)Oc2n[nH]c(-c3ccc(C)cc3)c21 (stereo not given)	0.18	-0.06
O=C1NC(c2ccncc2)C(C(=O)c2cccs2)C(O)(C(F)(F)F)N1 (stereo not given)	0.38	-0.04
O=C(CNC(=O)c1ccncc1)N/N=C/c1ccc(O)cc1O	0.86	-0.1
CCOc1ccc(C2SCC(=O)N2c2c(C)n(C)n(-c3ccccc3)c2=O)cc1 (stereo not given)	0.02	-0.72
O=C(CNC(=O)C1COc2ccccc2O1)N/N=C\c1ccc(Br)cc1 (stereo not given)	0.58	-0.33
CCOCCCNS(=O)(=O)c1ccc(NC(=O)CN2C(=O)c3ccccc3C2=O)cc1	0.1	1.1
C=CCNc1ncnc2c1[nH]c1ccccc12	1.1	2
CC(C)=N/N=C(\c1cccc([N+](=O)[O-])c1)C12CN3CN(CN(C3)C1)C2	0.5	0.92
Cc1cc([N+](=O)[O-])ccc1NC(=O)c1ccc(NC(=O)C(C)C)cc1	0.9	2.8
Cc1ccc(OCC(=O)NNC(=O)CCc2ccccc2)cc1	0.07	1.1
COc1ccc(NC(=O)C2CC(c3c(F)cccc3Cl)=NO2)cc1OC (stereo not given)	1.8	-1
Cc1ccc(SC(C)C(=O)Nc2ccccc2C(=O)N2CCOCC2)cc1 (stereo not given)	0.12	0
Cc1c(-c2ccc(Br)cc2)[n+](=O)c2c(n1[O-])CCCC2	0.14	0.06
O=C(c1cccc2ccccc12)C1CCCN(C(=O)C2CCOCC2)C1 (stereo not given)	1	0.14
CSc1nc2ccc(NC(=O)c3c(F)cccc3F)cc2s1	0.47	-0.39
CC(NC(=O)c1ccc(Br)o1)c1ccccc1 (stereo not given)	2.1	0.68
COc1ccc(S(=O)(=O)NC2CCCC2)cc1NC(C)=O	0.69	-0.72
CCOc1ccc(NC(=O)c2cc(S(=O)(=O)N3CCOCC3)cn2C)cc1	0.18	-0.03
COc1ccc(Cn2c(=O)[nH]c3cc(C(=O)NCCCOC(C)C)ccc3c2=O)cc1	1.7	-0.48
Cc1occc1C(=O)Nc1cccc(Cl)c1Cl	0.31	-1.3
Cc1ccc(N=C(NOC(=O)c2ccccc2)c2nonc2N)c(C)c1	1.3	-0.1
Next section
SMILES	KCNQ2 enhance	KCNQ2 enhance baseline
O=C(NNC(=O)c1cc(-c2ccncc2)nc2ccccc12)Nc1ccc(F)cc1	1.8	-0.03
CCN(CC)S(=O)(=O)c1ccc2oc(C(=O)NCC3COc4ccccc4O3)c(C)c2c1 (stereo not given)	0.68	-0.6
O=C(NN1CCCCC1)c1ccccc1	0.53	-0.82
CCOC(=O)c1c(NC(=O)CSc2nnnn2-c2ccc3c(c2)OCCO3)sc(C)c1C	0.22	0.79
CCN1C(=O)N[C@@H](c2ccccc2)[C@H](C(=O)OC)[C@H]1C	0.1	-3
Cc1ccc(C)c(N2CC(C(=O)Nc3nccs3)CC2=O)c1 (stereo not given)	0.59	0.05
O=C(CN1C(=O)NC2(CCCCC2)C1=O)Nc1ccc2c(c1)CCC2	0.13	0.39
CCN1C(=S)N[C@@H](c2ccccc2)C(C(=O)OC)=C1C	0.22	-0.02
COC(=O)c1cnn(-c2ccccc2)c1N	1.6	2.4
Cc1cc2c(cc1C)NC(c1ccccn1)C1=C(CC(C)(C)CC1=O)N2 (stereo not given)	1	0.28
COc1ccc(COc2ccccc2C(=O)NCc2ccccc2)cc1F	0.66	-0.29
O=C(Nc1ccc(Cc2ccncc2)cc1)C1CCC(N2C(=O)C3C4C=CC(C4)C3C2=O)CC1 (stereo not given)	0.86	-0.34
CC(Oc1ccc2c3c(c(=O)oc2c1)CCC3)C(=O)NCCN1CCOCC1 (stereo not given)	0.14	1.8
O=C(COC(=O)c1cccc(C(=O)OCC(=O)c2ccc(Br)cc2)n1)c1ccc(Br)cc1	1.1	-0.66
COc1ccc(-c2cc(C(=O)O)c(C)o2)cc1OC	0.64	-1
CCN(CC)S(=O)(=O)c1ccc(N2CCN(c3ccccc3OC)CC2)c(N)c1	0.69	0.26
COC(=O)/C=C/C(=O)N1CCN(c2ccccc2)CC1	0.51	1.1
COC(=O)CCn1c(C)cc(C(=O)COc2ccccc2C(N)=O)c1C	2.6	-2.2
CC(=O)N1CCN(C(=S)NC(=O)C23CC4CC(CC(C4)C2)C3)CC1	0.38	-0.05
CCOc1ccccc1NC(=O)c1sc2nc(C)nc(N3CCOCC3)c2c1C	1.1	0.2

Arranged by value in KCNQ2 enhance baseline (low to high): 3 of the compounds above.
SMILES	KCNQ2 enhance	KCNQ2 enhance baseline
O=C(Nc1ccc(Cc2ccncc2)cc1)C1CCC(N2C(=O)C3C4C=CC(C4)C3C2=O)CC1 (stereo not given)	0.86	-0.34
CCN(CC)S(=O)(=O)c1ccc(N2CCN(c3ccccc3OC)CC2)c(N)c1	0.69	0.26
CC(Oc1ccc2c3c(c(=O)oc2c1)CCC3)C(=O)NCCN1CCOCC1 (stereo not given)	0.14	1.8

Nothing new here: two of the compounds above.
SMILES	KCNQ2 enhance	KCNQ2 enhance baseline
COC(=O)/C=C/C(=O)N1CCN(c2ccccc2)CC1	0.51	1.1
COC(=O)CCn1c(C)cc(C(=O)COc2ccccc2C(N)=O)c1C	2.6	-2.2

Compound profiles, as listed above:
COc1cc(CCCN2CCNC[C@@H]2C(C)O)cc(OC)c1OC (stereo not given in full) as listed: KCNQ2 enhance = 0.33; KCNQ2 enhance baseline = -1.9
C/C(=C\c1ccco1)C1C(C#N)=C(N)Oc2n[nH]c(-c3ccc(C)cc3)c21 (stereo not given) as listed: KCNQ2 enhance = 0.18; KCNQ2 enhance baseline = -0.06
COc1ccc(S(=O)(=O)NC2CCCC2)cc1NC(C)=O as listed: KCNQ2 enhance = 0.69; KCNQ2 enhance baseline = -0.72

Next part.
SMILES	KCNQ2 enhance	KCNQ2 enhance baseline
Cc1cc(C(F)(F)F)nn1CC(=O)N(C)C1CCCCC1	2.1	0
CCc1cccc(Nc2cc(C)nc3nc(C)nn23)c1	0.14	-0.81
CN1C(=S)SC(/[N+]([O-])=C\c2ccco2)C1(C)C (stereo not given)	0.79	-0.07
CCC(=O)NNc1nc2c(Cl)cccc2s1	0.22	-1.8
CCCCc1nnc(NC(=O)C2CC(=O)N(Cc3ccccc3)C2)s1 (stereo not given)	0.64	-0.15
Cc1noc(NC(=O)c2c(-c3c(Cl)cccc3Cl)noc2C)c1[N+](=O)[O-]	3.3	0.19
COc1cc(C(=O)OCc2cc3ccccc3[nH]c2=O)cc(OC)c1OC	0.75	0.06
COC(=O)c1ccc(NC(=S)N2CCN(CCO)CC2)cc1	0.64	-1.4
Cc1nc(NC(=S)NC(=O)c2ccccc2)sc1C(=O)N(C)C	0.18	-1.9
Cc1ccc(CCNC(=O)C2CCN(S(=O)(=O)c3ccc4c(c3)CCC(=O)N4)CC2)cc1	0.61	0.23
CCOc1ccccc1NS(=O)(=O)c1cn(C)nc1C	0.55	-1.4
Clc1ccccc1Nc1c2c(nc3ncnn13)CCC2	1.1	-0.38
Nc1ccc(C(=O)Nc2cccc(N)c2)cc1	0.27	-0.25
COc1ccccc1Nc1ccc(C(=O)O)cc1[N+](=O)[O-]	1.4	0.54
CCOC(=O)c1cc(-c2nnc(-c3cc(OC)c(OC)c(OC)c3)o2)c(C)nc1C	0.22	0.02
O=C(NCCCc1nc2ccccc2[nH]1)c1ccco1	1.3	-1.1
Cc1cc(C)c(NC(=O)CSc2nc(=O)n(CCN3CCOCC3)c3c2CCCC3)c(C)c1	0.27	-0.55
COc1ccc(OC)c(C2=NS(=O)(=O)N(C)C(C(=O)NCc3cccs3)=C2)c1	3.1	-0.62
CC(C)n1nnc2ccccc2c1=O	0.24	0.43
C[C@@H]1NC(=O)N(c2ccc(F)cc2)C1=O	1.4	-0.72
CCC(=O)Nc1cccc(-c2nc3ccccc3c(=O)o2)c1	0.47	-0.56
COc1cccc(NC(C)C(=O)Nc2cc([N+](=O)[O-])ccc2Cl)c1 (stereo not given)	0.51	0.67
Cc1cc(C(=O)NCCCN2CCOCC2)n(-c2ccccc2)n1	1.4	-0.81
O=C(COC(=O)c1ccc(Br)cc1)NCCN1C(=O)CSC1=O	0.69	5.6
Cc1ccccc1N(CC(N)=O)S(C)(=O)=O	2.1	-0.59
CCC(=O)N1CCc2cc(S(=O)(=O)N3CCCCC3CC)ccc21 (stereo not given)	1.5	-1.7
COc1ccc(C(CNC(=O)C(=O)NC2CCCC2)N2CCN(C)CC2)cc1 (stereo not given)	0.7	1.4
COC(=O)CSc1nc(C)c(C(C)=O)cc1C#N	0.12	-0.02
COc1ccc2oc(C(=O)OCC(=O)NC3(C#N)CCCC3)c(C)c2c1	1.2	0.6
Cc1ccc(Cl)c2c1NC(=O)C2(O)CC(=O)c1ccc(Br)cc1 (stereo not given)	1.3	-2.7
CCN(CC)S(=O)(=O)c1ccc(C)c(NC(=O)COc2ccc(Cl)cc2Br)c1	0.05	-1.1
Cn1cnc2cc(NC(=O)c3ccco3)ccc21	1.1	-0.17
CCOC(=O)c1[nH]c2ccc(Br)cc2c1NC(=O)CCN1CCN(C(=O)OCC)CC1	1	-2.6
CCOC(=O)C(C)Sc1nnc(Cc2cc(=O)[nH]c(=O)[nH]2)n1-c1ccc(Cl)cc1 (stereo not given)	0.21	0.57
CSCCC(NS(=O)(=O)c1ccc(C)cc1)C(=O)N1CCN(S(=O)(=O)c2ccc(F)cc2)CC1 (stereo not given)	0.08	1.5

Shown bar-delimited: entries from further up
SMILES | KCNQ2 enhance | KCNQ2 enhance baseline
CCOc1cc(C(=S)N2CCCC2)ccc1OC | 2.4 | -1.2
CC(=O)C(=Cc1cc(C)n(-c2ccccc2)c1C)C(C)=O | 0.23 | -1.8
